CtBP-E1A inh: qHTS Assay for Inhibitors of the CtBP/E1A Interaction | activity change, % (concentration not given with the values) | 340,000 tested, 0.49% active | CtBP / adenovirus E1A interaction (AlphaScreen) | AlphaScreen GST-E1A/His-CtBP binding, 1536-well; active compounds read low; control for the full effect not named in the record; in the data active means activity change below about -65%; inconclusive means about -30% to -65%; inactive means above about -30%; note: % is set by controls: 0 for no effect and ±100 for the full control effect
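AlphaScreen with 125 nM GST-E1A and 125 nM His-CtBP (5X stocks) in Tris pH 8.0, 300 mM NaCl, BSA, Tween 20, TCEP. Compounds preincubated 2 h at 37 deg C, then glutathione donor/nickel acceptor beads added for 1 h at 37 deg C in dark.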
D2 PAM: Beta-Arrestin HTS for Positive Allosteric Modulators of the Human D2 Dopamine Receptor: Potentiators; D(2) dopamine receptor (Homo sapiens), P14416; DiscoveRx D2 beta-arrestin cells, luminescence, 90 min; 100% = 57 uM dopamine signal; potentiation, % (concentration not given with the values); 360,000 tested, 0.23% active; active = potentiation of 50% or more; inconclusive = 30% to 50%; inactive = 30% or less;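 note: compound concentration not given in the record; tested on top of an EC20 dose of dopamine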
Target sequence (P14416 whole entry, looked up): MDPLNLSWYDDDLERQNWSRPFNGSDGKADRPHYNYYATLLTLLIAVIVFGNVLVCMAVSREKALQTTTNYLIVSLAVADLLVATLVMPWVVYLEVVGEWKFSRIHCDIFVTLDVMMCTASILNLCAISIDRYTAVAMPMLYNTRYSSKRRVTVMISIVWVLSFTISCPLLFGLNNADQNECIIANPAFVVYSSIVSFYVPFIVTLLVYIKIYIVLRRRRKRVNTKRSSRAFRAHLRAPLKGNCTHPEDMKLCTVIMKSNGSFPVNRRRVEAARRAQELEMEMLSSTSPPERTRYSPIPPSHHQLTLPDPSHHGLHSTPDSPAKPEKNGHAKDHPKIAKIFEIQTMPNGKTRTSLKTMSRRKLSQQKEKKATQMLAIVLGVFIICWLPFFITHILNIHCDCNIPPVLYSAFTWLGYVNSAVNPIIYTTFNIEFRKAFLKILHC
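PathHunter D2 cells, attached overnight at 37 deg C, received compound in DMSO plus dopamine at EC20 (50 nM final) for 90 min at 37 deg C. Beta-arrestin recruitment was read as luminescence after 1 h with detection reagent at ambient temperature.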
PINK1 expr mod: A Quantitative High throughput Screen to Identify Chemical Modulators of PINK1 Expression; 410,000 tested, 0.2% active; Potency, µM (top dose mostly 76.6 µM), without a hit: at the top dose activation (PINK1 increase), usual class: activators; PINK1 immunofluorescence, high-content cytometry, 24 h; active = well fitted activation curve with a large enough effect; inconclusive = small, poorly fitted or top-dose-only effect; inactive = flat fitted curve, though single readings scatter; cell line not stated here;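 note: potency is the fitted concentration of half-maximal effect; % of control where 0% means no effect; nearly all actives have a fitted effect of over 65% in size; a mitochondrial uncoupler was the plate control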
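Stable cell line treated 24 h with compounds at 5 concentrations (CCCP controls), then fixed and immunostained for PINK1 plus nuclear and cell stains; PINK1 immunofluorescence quantified by laser-scanning microplate cytometry.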
TRPML1 agonist: qHTS for Agonists of the Human Mucolipin Transient Receptor Potential 1 (TRPML1). activation, % (test concentration not listed). TRPML1-expressing cells, Ca2+ dye fluorescence, FDSS; host cell line not named in the record; reference of the full effect not given here. 410,000 tested, 0.12% active. Mucolipin-1 (Homo sapiens), Q9GZU1; in the data active = activation above about 50%; inconclusive = about 30% to 50%; inactive = below about 30%; note: 0% is about no effect; the text of the record puts the active cut at 80%
Target sequence (Q9GZU1 whole entry, looked up): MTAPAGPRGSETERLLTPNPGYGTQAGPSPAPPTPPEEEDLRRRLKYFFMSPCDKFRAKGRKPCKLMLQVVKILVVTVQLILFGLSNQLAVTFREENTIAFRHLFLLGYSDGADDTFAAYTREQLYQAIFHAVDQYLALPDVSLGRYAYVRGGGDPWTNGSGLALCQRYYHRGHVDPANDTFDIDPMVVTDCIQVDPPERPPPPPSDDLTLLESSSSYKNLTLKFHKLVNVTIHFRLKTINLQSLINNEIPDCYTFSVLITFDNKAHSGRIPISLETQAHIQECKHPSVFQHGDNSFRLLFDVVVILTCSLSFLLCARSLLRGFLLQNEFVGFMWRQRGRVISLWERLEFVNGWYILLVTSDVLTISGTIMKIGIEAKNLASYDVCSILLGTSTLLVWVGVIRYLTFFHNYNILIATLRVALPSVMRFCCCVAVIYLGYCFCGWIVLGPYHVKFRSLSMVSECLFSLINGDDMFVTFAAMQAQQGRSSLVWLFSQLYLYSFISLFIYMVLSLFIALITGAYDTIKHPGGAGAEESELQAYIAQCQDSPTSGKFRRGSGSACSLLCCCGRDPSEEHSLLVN
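Calcium fluorescence on an FDSS kinetic reader gave the read-out. Tet-induced TRPML1-DL cells were plated overnight, dye-loaded (Ca8 with quencher, 45-90 min, room temperature, dark), then read 110 s after compound addition, and again 110 s after 4uM final 54-4 (EC80).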
D2 ag: Beta-Arrestin HTS for Positive Allosteric Modulators of the Human D2 Dopamine Receptor: Agonists | D(2) dopamine receptor (Homo sapiens), P14416 | DiscoveRx PathHunter D2 beta-arrestin, luminescence, 90 min; 100% = 57 uM dopamine signal | activation, % (test concentration not listed) | 360,000 tested, 0.084% active | AID 624465, 2012; in the data active = activation above about 40%; inconclusive = about 15% to 40%; inactive = below about 15%; note: compound concentration not given in the record; the text of the record calls up to 30% inactive
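Agonist mode: compounds alone added to overnight-plated D2 PathHunter cells for 90 min at 37 C, with 57 uM final dopamine (EC100) defining full response. Beta-arrestin recruitment detected by chemiluminescent reagent, read after 1 h at ambient temperature.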
Six1-Eya2 blk: qHTS Assay for Inhibitors of the Six1/Eya2 Interaction; Homeobox protein SIX1 (Homo sapiens) + Protein phosphatase EYA2 (Homo sapiens), …; AlphaScreen GST-Six1/His-Eya2 binding, biochemical; active compounds read low; control for the full effect not named in the record; activity change, % (test concentration not listed); 360,000 tested, 0.56% active; in the data active = activity change below about -65%; inconclusive = about -30% to -65%; inactive = above about -30%; note: % is set by controls: 0 for no effect and ±100 for the full control effect
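Homogeneous AlphaScreen proximity assay pairing GST-Six1 with His-tagged Eya2 (added as 5X mix: 250 nM and 500 nM) in 50 mM Tris pH 8.0, 300 mM NaCl, 1 mM TCEP. Glutathione donor and nickel acceptor beads; 1 h, 37 °C, dark.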
Starred values were filed as active, the others as inactive; u = inconclusive; x = no result given; & = joins results of further samples; [ ] = dose if it differs, or a comment.

smiles,CtBP-E1A inh,D2 PAM,PINK1 expr mod,TRPML1 agonist,D2 ag,Six1-Eya2 blk
CC(=O)Nc1ccc(S(=O)(=O)C(C#N)c2nc3ccccc3nc2NCCN2CCOCC2)cc1 (stereo not drawn),-14,-3,6.6%,-1.4,-3.7,-13
CC1(C(=O)NCc2ccc3c(c2)OCO3)CCN1CCc1ccccc1 (stereo not drawn),0,-9,2.3%,-1.0,-3.1,-8
CCN(C(=O)C1CCCCC1)c1nnc(-c2cccnc2)s1,-5,9,-0.4%,1.8,-1.6,-2
c1ccc(Cc2noc(CN3CCN(CCOc4ccccc4)CC3)n2)cc1,1,-6,0.6%,0.0,1.7,-13
Cc1ccc(N=Nc2c(C)[nH][nH]c2=O)c(C)c1,-17,-17,-0.7%,1.0,-3.9,-24
Cc1nc(SCC(N)=O)[nH]c(=O)c1CCC(C)C,2,-3,0.9%,-0.6,-0.5,-1
Cc1cc(C(=O)N/N=C/c2cc(Cl)cc([N+](=O)[O-])c2O)c2ccccc2n1,-91*,-48,0.4%,0.5,-8.8,-89*
O=C(Nc1ccccc1)/C(=C\c1cccs1)NC(=O)c1ccccc1,-6,-3,6.4%,1.6,-6.1,4
CCN(C(=O)COC(=O)/C=C/c1cccc([N+](=O)[O-])c1)c1c(N)n(Cc2ccccc2)c(=O)[nH]c1=O,x,5,-0.2%,-0.3,-1.2,0
CCOc1ncccc1C(=O)OCC(=O)c1ccc[nH]1,1,11,0.0%,-0.6,0.0,-1
CC(Sc1nnnn1C1CCCC1)C(=O)Nc1cccc(S(=O)(=O)N2CCOCC2)c1 (stereo not drawn),-14,-3,2.5%,2.6,1.5,5
CN(C)CCOc1ccc2c(c1)C(=O)C(=Cc1ncc([N+](=O)[O-])n1C)C2,-21,-18,1.6%,0.0,-2.2,3
O=C(CC1NCCN(Cc2ccccc2)C1=O)Nc1ccccc1 (stereo not drawn),x,-18,4.8%,-0.5,-5.1,-8
CN1CCN(CCCNc2c(C=O)c(=O)[nH]c3ccccc23)CC1,9,7,2.2%,0.6,-0.4,4
Fc1ccc(-c2nc3c(Cl)cc(C(F)(F)F)cn3c2Cl)cc1,2,-6,-3.5%,0.6,-2.7,0
Cc1ccc(OCC(=O)N2CCN(C(=O)c3ccncc3)CC2)cc1,5,-7,1.2%,-0.7,-1.9,-4
Cc1noc(C)c1COc1ccc(C(=O)OC(C)C(=O)Nc2ccc(N3CCOCC3)cc2)cc1 (stereo not drawn),-11,1,4.7%,0.3,-1.2,-3
CCc1ccc2nc3c(c(C(=O)O)c2c1)CCC3,3,-8,1.7%[38.3 µM],0.2,-1.2,2
COc1ccccc1NS(=O)(=O)c1cc(NC(=O)C2CCCC2)ccc1N1CCOCC1,0,2,1.8%,-0.2,3.7,-1
COc1ccc(NC(=O)CCCC(=O)c2ccccc2)cc1,x,-11,0.2%,1.1,-1.5,9
COc1ccc(-n2cnnc2SCC(=O)Nc2cccnc2Cl)cc1,3,-5,-0.3%,-0.4,-1.8,8
O=S(=O)(Nc1cccc(-c2ccc(N3CCCCCC3)nn2)c1)c1ccc(F)cc1,-10,-17,-0.3%&-0.1%,1.2&-0.2,1.4,-8
O=C(c1ccc2ccccc2c1)N1CCOCC1,24,-2,1.2%,-0.9,-2.0,9
CC(NC(=O)CCSCc1ccccc1F)c1ccccc1 (stereo not drawn),8,-4,0.2%&1.2%,-0.3&2.0,-1.4,2
CNC(=O)C1=C(C)Nc2nc3ccccc3n2C1c1cccc(OC)c1 (stereo not drawn),5,0,7.7%,-0.8,-0.7,-5
COc1cc(C(=O)NCCc2ccccc2)ccc1OCC(=O)N1CCOCC1,0,-2,0.9%,1.8,-0.3,3
Cc1ccccc1NC(=O)C1CCN(c2cnccn2)CC1,3,-2,-0.6%,-0.9,-3.1,-3
Cc1cc(C)cc(N(CC(=O)Nc2ccccc2)C2=NC3CS(=O)(=O)CC3S2)c1 (stereo not drawn),-7,-4,5.8%,0.2,-6.6,4
CCOC(=O)c1c(C)[nH]c(C(=O)OCc2c(C)noc2C)c1C,-1,-6,6.5%,0.6,1.8,-15
CN1CCN(Cc2nc3c(c(=O)n(C)c(=O)n3C)n2Cc2cccc3ccccc23)CC1,12,-13,-4.8%[38.3 µM],1.1,-1.8,1
CCOc1[nH]n(-c2ccccc2)c(=O)c1C=Nc1ccccc1,x,-5,12%,-1.4,-6.3,-20
CN1CCCN(C(=O)Cc2c(Cl)cccc2Cl)c2nc3ccccc3nc21,34,-15,-1.4%,0.7,-3.3,55
Cc1ccsc1C(=O)OCC(=O)N1CC(C)CC(C)C1 (stereo not drawn),6,-12,-0.1%,0.1,-5.6,-1
CC(=O)OCc1nc2sc(C)c(C)c2c(=O)[nH]1,2,0,-0.4%,-0.3,-4.0,-3
CCOC(=O)[C@]12CCCC=C1N(Cc1cccc3ccccc13)C(=O)[C@H](CC(=O)N1CCN(C(=O)C3CC3)CC1)C2,0,x,1.3%,-0.6,x,-2
CC(C)CC1c2[nH]c3ccccc3c2CCN1C(=O)c1cnccn1 (stereo not drawn),-10,-1,-0.8%,0.5,-2.6,-6
Cc1ccc(N(C(=O)c2ccc3c(c2)OCO3)C2C=CS(=O)(=O)C2)cc1 (stereo not drawn),7,3,x,0.1,-1.2,5
Cc1ccc(NC(CC(=O)c2ccccc2)c2ccc(F)cc2)cc1 (stereo not drawn),-17,-1,1.5%[38.3 µM],2.3,-2.7,-29
CCC(=O)NC(=S)Nc1c(C)cc(Br)cc1C,3,-8,-1.4%,2.8,0.8,-6
O=C(N=Nc1c(O)[nH]c2ccc(Br)cc12)c1cc(-c2cccc3ccccc23)n[nH]1,x,-1,20%,0.3,-1.8,-2

Rewritten with two lines to a compound: entries from further up
Value order – CtBP-E1A inh	D2 PAM	PINK1 expr mod	TRPML1 agonist	D2 ag	Six1-Eya2 blk
> O=S(=O)(Nc1cccc(-c2ccc(N3CCCCCC3)nn2)c1)c1ccc(F)cc1
→ -10	-17	-0.3%&-0.1%	1.2&-0.2	1.4	-8
> O=C(c1ccc2ccccc2c1)N1CCOCC1
→ 24	-2	1.2%	-0.9	-2.0	9
> CC(NC(=O)CCSCc1ccccc1F)c1ccccc1 (stereo not drawn)
→ 8	-4	0.2%&1.2%	-0.3&2.0	-1.4	2
> CNC(=O)C1=C(C)Nc2nc3ccccc3n2C1c1cccc(OC)c1 (stereo not drawn)
→ 5	0	7.7%	-0.8	-0.7	-5

(next part)
smiles,CtBP-E1A inh,D2 PAM,PINK1 expr mod,TRPML1 agonist,D2 ag,Six1-Eya2 blk
O=S(=O)(NCc1csc(-c2cccnc2)n1)c1ccc(F)cc1,-2,-5,-1.1%,-1.1,-8.7,3
CCCCN(C(=O)c1ccc(S(=O)(=O)N(C)C)cc1)c1nc2ccccc2s1,2,-4,u,2.5,2.0,1
CCN(C(=O)c1cc2cc(OC)ccc2oc1=O)c1ccccc1,-3,1,-0.8%,-0.6,-0.2,5
CC(=O)c1ccc(NS(=O)(=O)c2ccc(-c3cnc(C4CC4)o3)cc2)cc1,-13,-4,-0.7%&0.4%,-1.2&-1.2,1.6,-11
CCOC(=O)c1c(NC(=O)c2nn(CC)cc2Br)sc(C)c1C,14,-3,28%[38.3 µM],1.8,-4.0,7
c1ccc(Nc2nc(NCc3ccco3)c3ccccc3n2)cc1,-5,-29,-2.3%,0.9,4.5,8
Cc1nc2nc(SCC(=O)O)nn2c(C)c1Cc1c(F)cccc1Cl,-2,-1,-0.1%&0.9%,-0.4&1.3,2.4,-2
Cc1ccc(Cn2ncc3c(NCCCN(C)C)ncnc32)cc1,9,-10,-0.7%,x,-6.2,1
O=C(CN1C(=O)c2ccccc2S1(=O)=O)NC1CCCCC1,0,0,-0.9%,0.5,-2.0,-15
Cc1ccc(NC(=O)Nc2cc(C)on2)cc1,-3,-2,-0.2%,1.5,0.9,4
COc1ccc(N2CCN(C(c3cccs3)C(C)NC(=O)c3ccc4c(c3)OCO4)CC2)cc1 (stereo not drawn),x,-6,6.1%,0.0,3.9,-3
CSc1ccc(S(=O)(=O)NCC(=O)OCC(=O)N(Cc2ccccc2)C(C)C)cc1[N+](=O)[O-],-17,-9,0.5%,1.1,0.3,-11
Fc1cc(NCc2ccccc2)nc(NCc2ccccc2)n1,-16,-25,u,1.3,-2.2,0
CC(C)C(=O)Nc1nc2ccc(S(C)(=O)=O)cc2s1,0,-3,1.4%,0.1,5.9,-2
CCNC(=O)C1(C)CCN(Cc2ccccc2C#N)C1 (stereo not drawn),1,-7,-0.9%,0.0,-3.5,-6
CCOC(=O)C(C)Oc1ccc(C2NC(=O)NC(C)=C2C(C)=O)cc1Br (stereo not drawn),8,4,1.3%[38.3 µM],-0.1,-2.1,3
CC(=O)Nc1ccc(S(=O)(=O)NC(C)C(=O)NCC(c2ccco2)N2CCCCC2)cc1 (stereo not drawn),x,8,-0.2%,-1.0,2.4,-2
CC(C)(C)c1ccc(C(=O)NC(=S)Nc2sc3c(c2C#N)CCC3)cc1,-6,-1,0.2%,0.9,-0.5,-9
CCOc1c(S(=O)(=O)N2CCCC2)ccc(Cl)c1Cl,6,-3,4.3%,-0.1,-3.5,6
O=C(c1ccccc1Cc1ccccc1)N1CCN(S(=O)(=O)c2ccc(F)cc2)CC1,6,20,24%,1.2,5.0,5
CN(Cc1ccon1)C(=O)CC1C(=O)NCCN1Cc1ccc(Cl)c(F)c1 (stereo not drawn),-3,14,-1.6%,0.9,1.0,-5
COc1cc(/C=N/NC(=O)CCc2c(C)n[nH]c2C)ccc1O,-14,-7,-0.7%,-0.3,-4.2,-10
CC1CCc2c(cnc3ncnn23)C1 (stereo not drawn),x,-7,0.6%,0.5,5.4,1
O=C1CCc2cc(S(=O)(=O)NCCc3ccc(Cl)cc3)cc3c2N1CC3,4,20,0.0%,0.5,-1.7,-11
CCOC(=O)c1cnc(SCc2cccc(C)c2)nc1N,21,-13,1.5%,-0.4,0.1,13
O=C(O)CC(NCc1ccco1)C(=O)OCC1CCCO1 (stereo not drawn),3,19,-0.7%,0.0,-2.7,-4
COc1cc(OC)cc(C(=O)N(Cc2nc(-c3cccc(C)c3)no2)C(C)C)c1,8,-11,-0.3%,0.4,-1.3,-3
O=C(CCc1ccc(O)cc1)N/N=C/c1coc2ccccc2c1=O,-5,-3,-1.0%,0.9,2.3,-6
CCCCN1C=C(C(C)=O)C(=O)CC1,9,x,0.5%,0.0,1.1,3

From PubChem BioAssay
